A1 inh: caspase 3/7 activation in MEF A1-2A-BIM cells, primary screen, A1 inhibitor project, cell-based, luminescence, HTS; Caspase-Glo 3/7 luminescence, 3 h; percent of clofoctol response, vehicle zero; caspase activation, % (concentration not given with the values); 0.066% of 330,000 active; AID 2462, 2010;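 active = over half of replicate activation scores above 10%, or exactly half above 10 with the replicate mean above 10; inconclusive = replicate mean below 10 yet half the replicates above 10; inactive = over half of replicates below 10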;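 also: wells of about 30 µL received 50 nL stock; many hits fall short of the cut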
FGF22 binding: binders of human FGF22 protein, primary screen, FGF22 synaptogenesis inhibitor project, biophysical, thermal shift, single point; calls only at 9.99 µM; recombinant FGF22 thermal shift, SYPRO orange fluorescence; percent of sucrose octasulfate shift, DMSO zero; 1.5% of 340,000 active;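 active = melting point raised past a set limit in the mean and every replicate; inconclusive = no clear call; three in four hits are not shown here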
Target sequence (Q9HCT0 whole entry, looked up): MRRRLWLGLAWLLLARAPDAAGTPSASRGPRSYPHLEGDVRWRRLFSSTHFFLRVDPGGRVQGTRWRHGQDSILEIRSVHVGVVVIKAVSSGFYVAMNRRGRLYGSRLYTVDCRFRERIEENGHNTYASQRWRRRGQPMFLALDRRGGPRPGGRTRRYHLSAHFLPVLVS
T cruzi repl: inhibitors of intracellular T. cruzi growth, primary screen, luminescence, NIH3T3 host cells; inhibition, % (no concentration beside the values); AID 1885, 2009; T. cruzi beta-gal in NIH3T3, 90 h; 1.4% of 300,000 active;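 active = mean inhibition across valid replicates above about 55%, limit read from the data; inconclusive = mean below that limit but half or more replicates reach it; inactive = mean below it, under half of replicates reach it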;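 also: signal also drops with host cell toxicity which is not excluded here; 0% = plate median of DMSO wells and 100% = zero luminescence signal; higher percent means less beta-gal luminescence so fewer parasites; stock transfer was 50 nL into about 50 µL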
E coli growth: E. coli growth inhibition, primary screen, OD600; OD600 absorbance (no concentration beside the values); 0.21% of 330,000 active; Escherichia coli growth, 23 h; hits give low values;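 active = OD600 absorbance below the run mean of sample wells minus 3.6 SD, in any replicate, cut at about 0.56 in these data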;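 also: stock transfer was 300 nL into about 60 µL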
UCH37 DUB inh: inhibitors of human UCH37 deubiquitinase, primary screen, biochemical, Ub-AMC cleavage, fluorescence. Ubiquitin carboxyl-terminal hydrolase isozyme L5 (Homo sapiens), Q9Y5K5. AID 588478, 2011. purified proteasome/UCH37. inhibition, % (no concentration beside the values). 0.33% of 330,000 active;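 active = mean of two replicates above 20%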;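 also: 0% = compound-free wells with enzyme and 100% = wells lacking proteasome; stock transfer was 100 nL into about 20 µL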
Target sequence (Q9Y5K5 whole entry, looked up): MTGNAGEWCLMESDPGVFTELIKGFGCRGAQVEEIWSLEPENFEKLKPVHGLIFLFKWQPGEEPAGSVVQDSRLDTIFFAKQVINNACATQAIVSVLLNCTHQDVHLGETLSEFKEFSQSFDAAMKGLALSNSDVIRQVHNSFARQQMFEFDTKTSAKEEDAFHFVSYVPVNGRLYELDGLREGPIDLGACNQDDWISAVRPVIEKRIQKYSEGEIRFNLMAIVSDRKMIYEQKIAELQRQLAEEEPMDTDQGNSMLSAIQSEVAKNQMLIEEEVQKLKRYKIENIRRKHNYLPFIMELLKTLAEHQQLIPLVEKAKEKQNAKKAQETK
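System: Proteasome-associated human UCH37 deubiquitinase; Input: 0.15 nM proteasome in added enzyme buffer; Also added: Ub-AMC substrate from 1 µM stock; Incubation: 30 min compound-proteasome preincubation then 25 min substrate reaction, room temperature; Detection: fluorescence, ex 355 nm, em 460 nm; Read-out: % inhibition of Ub-AMC cleavage fluorescence; Benchmarks: no-proteasome and no-compound wells.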
Beta apoptosis: inhibitors of cytokine-induced beta cell apoptosis, primary screen, luminescence; INS-1E cytokine-induced death, ATP luminescence, 48 h; percent of positive-control rescue, neutral wells zero; protection from apoptosis, % (concentration not given with the values); AID 435005, 2010; 0.8% of 300,000 active;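 active = all replicates at 75% or more, or half of them and the mean; inconclusive = half reach 75% but not the mean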;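 also: 0% = cytokine-treated negative control wells and 100% = positive control rescue; higher means more ATP so stronger rescue from cytokine killing; wells of about 40 µL received 100 nL stock; the first replicate is given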
rRNA inh HTS: reduced GFP signal of wild-type E. coli, primary screen, bacterial rRNA inhibitor project, GFP/RFP fluorescence, OD600, single point; E. coli WT GFP vs humanized-ribosome RFP mutants, 24 h; hits give low values; DMSO median 0, no signal -100; GFP signal change (wild-type ribosome), % (test concentration not listed); AID 720706, 2013; 1.6% of 350,000 active;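 active = significant combined selectivity score with lowered wild-type GFP, culture density cut under 30%, mutant RFP and density less affected; inactive = any of these conditions unmet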; also: one replicate is shown; some compounds called inactive have numbers as strong as hits
MLL AF4-AF9 inh: inhibitors of AF4 peptide binding to AF9, primary screen, biochemical, AlphaScreen, biotin-AF4 peptide, FLAG-AF9, single point. 0.47% of 350,000 active. inhibition, % at 10 µM;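 active = every replicate reaching a set inhibition limit, whatever the replicate mean, cut at about 25% in these data; inconclusive = mean inhibition reaches that limit but some replicates miss it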;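 also: 0% = plate neutral control median and 100% = total signal loss; the record names both 10 and 1 µM as test concentration; the first replicate is given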
Target sequence (P42568 whole entry, looked up): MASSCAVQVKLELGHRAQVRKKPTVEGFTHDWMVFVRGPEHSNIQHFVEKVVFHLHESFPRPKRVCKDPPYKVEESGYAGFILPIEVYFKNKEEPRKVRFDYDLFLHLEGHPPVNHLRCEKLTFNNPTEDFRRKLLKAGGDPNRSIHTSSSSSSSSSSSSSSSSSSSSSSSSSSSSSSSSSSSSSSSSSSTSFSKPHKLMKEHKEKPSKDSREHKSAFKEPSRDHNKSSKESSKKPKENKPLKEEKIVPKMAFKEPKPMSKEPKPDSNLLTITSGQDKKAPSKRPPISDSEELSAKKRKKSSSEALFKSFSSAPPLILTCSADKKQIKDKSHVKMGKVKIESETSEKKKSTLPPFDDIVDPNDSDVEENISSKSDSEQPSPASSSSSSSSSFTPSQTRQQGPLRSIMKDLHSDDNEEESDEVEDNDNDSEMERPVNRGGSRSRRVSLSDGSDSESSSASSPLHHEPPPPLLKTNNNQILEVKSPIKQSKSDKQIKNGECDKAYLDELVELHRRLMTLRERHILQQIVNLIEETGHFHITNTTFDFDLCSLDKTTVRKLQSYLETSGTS
rRNA inh HTS OD600: recorded beside rRNA inh HTS, whose call it bears; OD600 change, %; measured here: OD600 growth;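 optical density of the mix in the first replicate; 0 = DMSO median and -100 = no signal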
rRNA inh HTS RFP: further read-out of rRNA inh HTS, marked with its call; RFP signal change, %; measured here: RFP humanized mutant strains;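 first replicate; 0 = DMSO median and -100 = no signal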
The depositor's hits bear a star; i = inactive; u = inconclusive; x = no result given. Some of the compounds tested; rates above refer to the full screens.

Order of results: A1 inh	FGF22 binding	T cruzi repl	E coli growth	UCH37 DUB inh	Beta apoptosis	rRNA inh HTS	rRNA inh HTS OD600	rRNA inh HTS RFP	MLL AF4-AF9 inh
CC(c1ccccc1)N1C(=O)c2ccc(C(=O)Nc3ccccc3C(=O)O)cc2C1=O (centres undefined)
  -0.3	i	-3	0.61	4.0	x	x	x	x	0.4
CC(C)(C)OC(=O)N1CCC(NC(=O)c2[nH]cnc2C(=O)Nc2ccc(Cl)cc2)CC1
  0.2	i	x	0.69	-4.7	-8	17	15	3.4	-1.9
Cc1cccc(C)c1OCC(=O)NCc1ccccc1
  -0.2	i	-3	0.68	2.1	x	-5	-3	1.7	-1.3
CC(Sc1nc(-c2ccccc2)cc(C(F)(F)F)n1)C(=O)NCCN1CCOCC1 (centres undefined)
  -0.3	x	2	0.7	4.8	-4	x	x	x	x
CC(=O)NC(=O)c1ccc(-c2ccc(Cl)cc2)o1
  -4.0	i	-4	0.68	-48	-1	0	14	1.3	-0.1
Cc1ccc(-n2nnnc2-c2cccc(C)c2)cc1
  0.5	i	-4	0.7	3.1	1	-32	-33	-5.0	-1.2
O=C1/C(=C/c2cccs2)SC(=S)N1CCC(=O)N1CCCCC1CCO (centres undefined)
  -2.1	i	-7	0.69	8.9	-22	-16	-13	1.9	8.2
O=C(Nc1cccc2ncccc12)c1ccc(-c2ccc(Br)cc2)o1
  0.9	x	21	0.74	0.9	-13	x	x	x	x
CC(C)(C)c1ccc(C(=O)NC(=S)NNC(=O)COc2ccccc2)cc1
  -0.4	i	-18	0.72	5.6	0	x	x	x	-0.6
CCN(C(=O)COC(=O)Cn1c(=O)oc2ccccc21)c1c(N)n(Cc2ccccc2)c(=O)[nH]c1=O
  x	i	x	0.73	3.4	x	9	22	0.5	-7.1
COc1cc(C2=NOC(C(=O)N3CCOCC3)C2)cc(OC)c1OC (centres undefined)
  -0.2	x	-10	0.66	3.2	-1	x	x	x	x
COCCOC(=O)c1c(NC(=O)CNC2CCCc3ccccc32)sc(C(N)=O)c1C (centres undefined)
  -0.5	i	16	0.73	-1.1	2	10	6	-1.1	1.7
NC(=O)c1ccc2nc(NC(=O)c3ccc(N)cc3)sc2c1
  x	i	-5	0.65	-111	x	7	-6	-1.1	-3.7
CCCCC1OC2(C)OC(=N)C1(C#N)C(C#N)(C#N)C2c1ccccc1 (centres undefined)
  0.4	i	x	0.65	-345	1	0	-19	3.6	3.2
CC(C)(C)C(=O)Nc1ccc(S(=O)(=O)N2CCCC2)cc1
  -0.6	x	-7	0.64	2.3	-4	9	-1	-2.6	0.8

3 of the entries above in order of the rRNA inh HTS value, high to low:
canonical_smiles,A1 inh,FGF22 binding,UCH37 DUB inh,rRNA inh HTS,rRNA inh HTS OD600,rRNA inh HTS RFP,MLL AF4-AF9 inh
CCCCC1OC2(C)OC(=N)C1(C#N)C(C#N)(C#N)C2c1ccccc1 (centres undefined),0.4,i,-345,0,-19,3.6,3.2
Cc1cccc(C)c1OCC(=O)NCc1ccccc1,-0.2,i,2.1,-5,-3,1.7,-1.3
O=C1/C(=C/c2cccs2)SC(=S)N1CCC(=O)N1CCCCC1CCO (centres undefined),-2.1,i,8.9,-16,-13,1.9,8.2

Remaining list, next part:
Order of results: A1 inh	FGF22 binding	T cruzi repl	E coli growth	UCH37 DUB inh	Beta apoptosis	rRNA inh HTS	rRNA inh HTS OD600	rRNA inh HTS RFP	MLL AF4-AF9 inh
Cn1c2ccccc2c2c(C(=O)N3CCN(C(=O)c4ccco4)CC3)cn(C3CCCCC3)c(=O)c21
  -1.3	x	19	0.69	-61	0	x	x	x	x
CC(C(=O)O)N(C(=O)c1ccccc1)c1ccc(F)cc1 (centres undefined)
  -1.5	i	1	0.68	4.0	-1	11	16	-0.7	-1.0
COc1ccc(CCNC(=O)Cn2c(-c3nonc3N)nc3ccccc32)cc1OC
  0.1	x	-1	0.71	1.8	-4	22	7	2.7	x
COc1ccc2nc(C(F)(F)Cl)c(C#N)c(N)c2c1
  -0.4	i	-6	0.64	5.1	3	-40*	-22*	-12*	3.4
Cc1cccc(N2CCN(C(=O)c3cc4ccccc4oc3=O)CC2)c1C
  0.4	i	-4	0.77	3.9	-9	-9	-39	-7.5	u
COc1cc(NC(=O)COc2cccc(OC)c2)cc(OC)c1
  -1.2	x	-18	0.69	2.2	-2	x	x	x	x
Cc1[nH]n(-c2ccc([N+](=O)[O-])cc2)c(=O)c1C=NCCN1CCN(C(=O)c2ccccc2F)CC1
  -8.3	x	9	0.66	8.2	49	x	x	x	x
CN1CCN(c2nc3ccccn3c(=O)c2C=C(C#N)C#N)CC1
  1.7	i	-3	0.67	-162	-1	15	3	3.3	-0.1
CN(C(=O)/C=C/c1ccccc1)C1CCS(=O)(=O)C1 (centres undefined)
  0.5	i	-11	0.66	-13	2	17	12	-9.1	2.6
Cc1occc1C(=O)NCc1ccccn1
  0.3	x	-6	0.71	0.1	2	x	x	x	x
CCOC(=O)c1cc(C)sc1/N=C/C1C(=O)CC(C)(C)CC1=O
  -0.1	i	-26	x	x	-2	4	22	-1.9	5.2
O=C(NCc1ccccn1)c1c(-c2ccccc2)sc2ccccc12
  1.0	i	x	0.59	-0.7	-8	-5	-7	-11	-5.0
Cc1ccc(N(CC(=O)NC(C)(C)C)C(=O)CNC(=O)c2cccs2)cc1C
  0.4	i	23	0.71	2.8	0	11	8	1.0	-2.3
O=C(c1ccccc1F)N(Cc1cccs1)C1CCS(=O)(=O)C1 (centres undefined)
  -0.5	i	-6	0.66	-0.8	-1	8	4	-1.4	-2.8
CCOC(=O)c1sc(NC(=O)C(CC)OC(=O)c2ccco2)nc1C (centres undefined)
  0.0	i	3	0.68	4.0	-3	-11	-18	-1.2	-2.4
CN(C)/N=C/c1ccc(/C=N/NC(N)=S)o1
  0.3	i	-16	x	x	1	5	7	-7.4	-0.2
O=C(CNc1ccccc1)Nc1ccc(F)cc1
  0.2	x	-19	0.65	1.2	-8	x	x	x	x
O=C(N/C(=C/c1ccc(Cl)cc1)C(=O)N1CCOCC1)c1ccccc1
  0.0	i	-11	0.7	2.7	-4	12	0	0.2	0.3
COc1ccccc1C1C(C#N)=C(N)N(N(C)C)C2=C1C(=O)CC(C)(C)C2 (centres undefined)
  -0.1	i	16	0.7	3.2	2	6	6	4.5	2.3
Cc1[nH]n(C(N)=S)c(=O)c1N=Nc1ccc(S(=O)(=O)N2CCCC2)cc1
  -2.3	x	-21	0.73	-0.3	5	x	x	x	x
O=C(c1cccs1)N1CCCC(c2nc3c(nnn3Cc3cccc(Cl)c3)c(=O)[nH]2)C1 (centres undefined)
  -1.0	i	0	0.69	7.1	-1	-6	-28	5.5	-1.4
N#CCC(=O)Nc1ccc(C(=O)OCC(=O)NC2CCCCCC2)cc1
  x	i	x	0.65	2.7	x	5	1	-3.1	2.0
O=C(c1ccc(F)cc1)N1CCC2(CC1)NCCc1[nH]cnc12
  -0.5	i	0	0.7	5.2	0	7	8	-1.2	1.4
C#CCNc1c2c(nc3ncnn13)CC(C)CC2 (centres undefined)
  0.7	i	25	0.7	2.6	-4	7	6	-1.3	1.7
O=C(COc1cc(Cl)ccc1Cl)N1CCNC1=O
  x	i	x	0.7	3.3	x	13	8	-0.9	-0.5
Cc1c(C(=O)NCCS(=O)(=O)N2CCN(c3ccccc3F)CC2)cccc1[N+](=O)[O-]
  0.0	i	14	0.72	0.3	-3	1	7	0.4	-1.2
CCOc1ccc2[nH]c3c(NCCN(C)C)ncnc3c2c1
  0.1	i	-1	0.68	-52	3	-13*	8.0*	-3.4*	8.7
O=C(NC(=S)NC1C2CC3CC(C2)CC1C3)c1ccccc1 (centres undefined)
  2.0	i	-12	0.65	4.6	-4	-21	-25	0.2	0.2
O=C(NCC1OCCc2ccccc21)c1ccc(NC(=O)c2ccccc2Cl)cc1 (centres undefined)
  0.0	x	-5	0.72	-1.7	1	x	x	x	x
CCN(CC)S(=O)(=O)c1ccc(N2CCOCC2)c(NC(=O)c2cccc3ccccc23)c1
  0.3	i	29	0.72	-9.0	3	-5	-16	-7.0	-3.1

Some values from the results shown:
Reading of `O=C(NC(=S)NC1C2CC3CC(C2)CC1C3)c1ccccc1` (centres undefined) under rRNA inh HTS OD600: -25
Reading of `O=C(c1cccs1)N1CCCC(c2nc3c(nnn3Cc3cccc(Cl)c3)c(=O)[nH]2)C1` (centres undefined) under rRNA inh HTS RFP: 5.5
Reading of `COc1ccccc1C1C(C#N)=C(N)N(N(C)C)C2=C1C(=O)CC(C)(C)C2` (centres undefined) under Beta apoptosis: 2

Carrying on:
Order of results: A1 inh	FGF22 binding	T cruzi repl	E coli growth	UCH37 DUB inh	Beta apoptosis	rRNA inh HTS	rRNA inh HTS OD600	rRNA inh HTS RFP	MLL AF4-AF9 inh
O=C(Nc1ccc(N2CCOCC2)cc1N1CCOCC1)c1cccc([N+](=O)[O-])c1
  1.9	i	-7	0.63	2.4	-2	18	24	5.6	-0.5
O=C(N[C@@H](Cc1c[nH]c2ccccc12)C(=O)O)C1CCN(S(=O)(=O)c2ccc(Cl)cc2)CC1
  -0.4	i	-6	0.66	4.6	-2	3	12	2.5	-1.2
COc1ccc(NC(=O)C(CC(C)C)NC(=O)C2CCC(C)CC2)c(OC)c1 (centres undefined)
  0.3	i	23	0.73	3.2	-4	5	6	9.1	2.2
CCS(=O)(=O)c1nc(S(=O)(=O)c2ccc(Cl)cc2)c(N2CCN(C)CC2)s1
  -0.1	i	9	0.64	2.5	-8	1	2	-1.2	-1.2
CN(C)/C=N/C(=S)Nc1ccc(Cl)cc1
  -0.3	i	0	x	x	-11	10	6	3.9	0.6
CCOC(O)[C@H]1N[C@@H](c2ccc(Cl)cc2)[C@@H]([N+](=O)[O-])[C@@H]1c1ccccc1 (some centres undefined)
  1.3	x	3	0.69	-1.5	-6	x	x	x	x
O=C(c1ccc(S(=O)(=O)N2CCCCC2)cc1)N1CCc2ccccc2C1
  -0.9	i	24	0.65	2.5	-2	-36	-37	-2.6	-3.8
Nn1c(SCC(=O)Nc2ccccc2F)nnc1-c1cccnc1
  -0.5	x	0	0.71	0.0	7	x	x	x	x
O=C(COc1cccnc1[N+](=O)[O-])Nc1ccc(N2CCOCC2)cc1
  -1.4	i	-6	0.71	12	-3	-4	8	-2.6	-3.4
Cc1ccc(CNC(=O)C2(C(F)(F)F)C/C(=C\Cc3ccccc3)CCCO2)o1 (centres undefined)
  -0.6	x	-19	x	2.0	4	x	x	x	x
COc1ccc(CC(=O)Nc2ccc(N3CCCC3)c(C)c2)cc1
  -1.1	i	26	0.67	-0.9	-5	2	-10	-2.4	7.6
